LANA-H2A inh: blockers of LANA interaction with H2A/H2B – biochemical, FP readout, HTS, primary screen | Protein LANA1 (Human herpesvirus 8 type P (isolate GK18)), Q9QR71 | cell-free LANA-H2A/H2B peptide, fluorescence polarization | inhibition, % (concentration not given with the values) | 320,000 compounds, 0.6% hits; in the data active = inhibition mostly above about 10%, no sharp cut-off; inactive = mostly below about 6.7%;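 note: stock transfer was 7.5 nL into about 10 µL; 0% = median of vehicle wells and 100% = median of positive control wells; one replicate is shown; the record names a cut of 25% in any replicate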
Beta apoptosis: inhibitors of cytokine-induced beta cell apoptosis, primary screen, luminescence. INS-1E cytokine-induced death, ATP luminescence, 48 h; percent of positive-control rescue, neutral wells zero. protection from apoptosis, % (concentration not given with the values). 300,000 compounds, 0.8% hits. AID 435005, 2010;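 active = all replicates at 75% or more, or half of them and the mean; inconclusive = half reach 75% but not the mean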;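 note: 0% = cytokine-treated negative control wells and 100% = positive control rescue; higher means more ATP so stronger rescue from cytokine killing; wells of about 40 µL received 100 nL stock; the first replicate is given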
RanGTP-Impb inh: inhibitors of RanGTP-importin-beta interaction, primary screen, biochemical, FRET, CFP-Ran, YFP-importin-beta, homogeneous; Ran GTPase (GTP-bound) - importin-beta complex; cell-free CFP-Ran/YFP-importin-beta FRET ratio; inhibition, % (test concentration not listed); 300,000 compounds, 1.1% hits;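 active = most replicates above 15%; inconclusive = exactly half above 15%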;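 note: 0% = DMSO wells and 100% = Ran loaded with GDP instead of GTP; wells of about 40 µL received 100 nL stock; the first replicate is given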
T cruzi repl: inhibitors of intracellular T. cruzi growth, primary screen, luminescence, NIH3T3 host cells. T. cruzi beta-gal in NIH3T3, 90 h. inhibition, % (concentration not given with the values). 300,000 compounds, 1.4% hits;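 active = mean inhibition across valid replicates above about 55%, limit read from the data; inconclusive = mean below that limit but half or more replicates reach it; inactive = mean below it, under half of replicates reach it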;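 note: signal also drops with host cell toxicity which is not excluded here; 0% = plate median of DMSO wells and 100% = zero luminescence signal; higher percent means less beta-gal luminescence so fewer parasites; stock transfer was 50 nL into about 50 µL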
A1 inh: caspase 3/7 activation in MEF A1-2A-BIM cells, primary screen, A1 inhibitor project, cell-based, luminescence, HTS; Caspase-Glo 3/7 luminescence, 3 h; percent of clofoctol response, vehicle zero; caspase activation, % (no concentration beside the values); 330,000 compounds, 0.066% hits; AID 2462, 2010;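 active = over half of replicate activation scores above 10%, or exactly half above 10 with the replicate mean above 10; inconclusive = replicate mean below 10 yet half the replicates above 10; inactive = over half of replicates below 10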;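 note: wells of about 30 µL received 50 nL stock; many hits fall short of the cut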
UCH37 inh: inhibitors of human UCH37 deubiquitinase, primary screen, biochemical, Ub-AMC cleavage, fluorescence. Ubiquitin carboxyl-terminal hydrolase isozyme L5 (Homo sapiens), Q9Y5K5. purified proteasome/UCH37. inhibition, % (no concentration beside the values). 330,000 compounds, 0.33% hits. AID 588478, 2011;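 active = mean of two replicates above 20%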;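 note: 0% = compound-free wells with enzyme and 100% = wells lacking proteasome; stock transfer was 100 nL into about 20 µL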
Target sequence (Q9Y5K5 whole entry, looked up): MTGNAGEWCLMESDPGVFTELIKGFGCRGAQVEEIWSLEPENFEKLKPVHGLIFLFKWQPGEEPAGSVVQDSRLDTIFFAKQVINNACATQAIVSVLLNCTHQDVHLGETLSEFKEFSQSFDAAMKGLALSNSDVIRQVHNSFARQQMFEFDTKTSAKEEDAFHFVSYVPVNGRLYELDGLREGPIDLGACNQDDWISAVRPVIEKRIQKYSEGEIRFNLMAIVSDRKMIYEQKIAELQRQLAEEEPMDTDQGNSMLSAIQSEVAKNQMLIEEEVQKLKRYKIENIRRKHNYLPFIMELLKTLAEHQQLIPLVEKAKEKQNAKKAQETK
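Schedule: 30 min plus 25 min, room temperature / Material: human UCH37 within purified proteasomes / Technique: AMC fluorescence intensity at 355/460 nm / Buffer or medium: pH 7.4 Tris-HCl (50 mM) with ovalbumin, ATP-MgCl2, DTT / Controls: wells without proteasome as full block, compound-free enzyme plus substrate as uninhibited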
Beta2AR agonist: beta2AR agonists driving receptor internalization, primary screen, cell-based, FAP fluorogen, flow cytometry. Beta-2 adrenergic receptor (Homo sapiens), P07550. Am2.2-beta2AR cells; reference of the scale not given here. response, % (concentration not given with the values). 340,000 compounds, 0.43% hits;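 active = response above a set limit, near 3 SD of response in nonfluorescent compounds, cut at about 42% in these data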;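 note: stock transfer was 100 nL into about 11 µL; a reference agonist was the positive control; negative values mostly stem from fluorescent compounds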
Target sequence (P07550 whole entry, looked up): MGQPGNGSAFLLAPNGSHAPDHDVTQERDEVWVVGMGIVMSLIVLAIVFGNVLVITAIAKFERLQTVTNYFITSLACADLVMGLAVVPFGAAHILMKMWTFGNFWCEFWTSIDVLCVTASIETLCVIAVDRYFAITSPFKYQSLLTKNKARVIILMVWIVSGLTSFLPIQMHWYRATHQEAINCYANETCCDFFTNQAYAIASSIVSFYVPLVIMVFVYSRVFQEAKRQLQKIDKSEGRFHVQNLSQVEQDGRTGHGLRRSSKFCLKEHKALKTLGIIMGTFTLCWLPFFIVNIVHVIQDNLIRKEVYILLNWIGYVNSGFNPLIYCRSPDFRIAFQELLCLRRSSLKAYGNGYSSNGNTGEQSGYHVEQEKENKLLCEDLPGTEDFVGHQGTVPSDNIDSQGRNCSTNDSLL
Calb FLC: C. albicans growth inhibition with fluconazole, primary screen, CaCi-2 strain, Alamar Blue fluorescence | 300,000 compounds, 0.57% hits | C. albicans CaCi-2 (fluconazole-resistant clinical isolate) + fluconazole, 48 h | growth inhibition, % (test concentration not listed) | AID 1979, 2009;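 active = most replicates above 75%; inconclusive = exactly half above 75%; inactive = most below 75%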;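 note: all wells also contain fluconazole at 8 µg/ml as a sub-toxic cotreatment; 0% = median of DMSO wells and 100% = median of geldanamycin control wells; wells of about 8 µL received 7.5 nL stock; the first replicate is given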
* = called active by the depositor; i = inactive; ? = inconclusive; . = not tested or not shown.

smiles	Calb FLC	RanGTP-Impb inh	LANA-H2A inh	A1 inh	Beta2AR agonist	Beta apoptosis	UCH37 inh	T cruzi repl
COc1ccc(-c2csc(NC(=O)C3CCCO3)n2)cc1 (stereo not given)	2	-2.4	0.7	-0.2	-5	-4	5.0	4
CC1(C)Cc2c(sc(/N=C/N3CCCCC3)c2C#N)C(C)(C)N1	-1	?	0.7	-0.1	-5	.	.	16
CCC(CC)C(=O)Nc1ccc(Sc2ccc([N+](=O)[O-])cc2)cc1	5	2.7	1.6	-0.3	8	8	2.4	32
O=C(COC(=O)/C=C/c1ccc([N+](=O)[O-])cc1)NCc1ccc2c(c1)OCO2	-3	1.5	3.0	0.6	7	1	5.7	-7
CN(C)S(=O)(=O)N(CC(=O)NCCSCc1ccc(Cl)cc1)c1ccccc1	27	-1.4	9.2	-0.3	2	.	-0.8	-12
CN1CCN(C(=O)CCCN2C(=O)/C(=C/c3ccccc3)SC2=S)CC1	13	0.4	3.2	-0.8	-15	-47	5.9	9
COc1ccc(C2NC(Cc3ccccc3)(C(=O)O)C3C(=O)N(c4ccccc4OC)C(=O)C23)cc1 (stereo not given)	5	-0.1	-1.3	0.6	0	-6	0.0	-6
CC(=O)N1CCc2cc(S(=O)(=O)CCC(=O)N3CCN(C(=O)c4ccco4)CC3)ccc21	.	.	-0.1	0.5	-5	-10	4.8	.
CCOc1ccc(Nc2nc3cc(S(=O)(=O)CC)ccc3o2)cc1	20	?	-2.8	-0.1	5	2	1.4	8
COc1ccc(CNC(=O)CSc2nnc(-c3ccc(NC(C)=O)cc3)n2C)cc1	15	-1.0	-0.9	-0.2	-4	-2	0.3	-11
CC1Cc2ccccc2N1C(=S)NC(=O)c1cccc(Br)c1 (stereo not given)	26	3.7	.	0.0	3	-5	3.6	-19
O=C(c1ccc(Br)cc1)N(Cc1ccco1)C1CCS(=O)(=O)C1 (stereo not given)	1	1.5	6.8	0.4	0	-6	2.8	-5
COc1cc2c(cc1OC)/C(=C/c1ccc(Cl)cc1)C(=O)OC2	-16	1.1	-12	0.2	-7	-10	5.8	-6
COc1ccc(-c2noc(C(C)NS(=O)(=O)c3ccc(NC(C)=O)cc3)n2)cc1 (stereo not given)	2	3.6	3.1	-0.5	3	0	0.2	-10
O=C(NCc1ccccn1)c1ccc(Cn2cc(C(F)(F)F)ccc2=O)cc1	0	0.2	2.5	0.3	1	0	0.6	6
Cc1ccc(-c2c(C(=O)N/N=C/c3cccnc3)nnn2-c2nonc2N)cc1	-7	0.4	-1.9	0.4	-11	-2	.	-12
CCOC(=O)CCNC(=O)N1CCCC(N2CCN(c3ccc(OC)cc3)CC2)C1 (stereo not given)	6	-2.7	3.1	1.1	9	.	2.5	-24
COc1ccc(-n2nc3ccc(N)cc3n2)cc1Cl	5	4.5	0.1	-4.8	6	2	i	-42
CC(C)(C)S(=O)(=O)c1cnc(N2CCOCC2)nc1N	10	-1.8	-6.9	2.1	-1	-10	4.6	-10
COc1ccc(CCNC(=O)CCNS(=O)(=O)c2ccc3c(c2)CCN3C(C)=O)cc1OC	.	.	-316	0.5	3	-4	1.7	.
CCCOc1ccc(N2C(=O)CC(SC(=NCC)NCC)C2=O)cc1 (stereo not given)	3	-6.6	2.4	-0.4	-10	0	5.7	1
CCOC(=O)c1c(C)[nH]c(C(=O)OCC(=O)Nc2cccnc2Cl)c1C	.	-2.4	0.7	0.4	14	-1	-0.8	0
COc1ccc(/C=N/NC(=O)CCCC(=O)NC2CCCCC2)cc1	2	5.4	3.7	-0.5	6	-1	.	-8
O=C(c1cccc(N2C(=O)C3C4C=CC(C4)C3C2=O)c1)N1CCN(c2ccccc2Cl)CC1 (stereo not given)	-23	0.4	-1.0	0.7	3	-23	5.0	13
CCOc1ccc2c(C)c(Cl)c(=O)oc2c1	-38	3.5	0.4	-0.5	25	-3	-495	-4
COC(=O)[C@@]12CCCCN1[C@H](c1ccc(-c3ccc4c(c3)OCO4)cc1)[C@H]1C(=O)N(C)C(=O)[C@H]12	.	.	-1.1	1.6	11	4	1.3	.
COc1ccc(NC(=O)c2ccco2)cc1NC(=O)c1ccccc1F	2	-2.0	3.7	-0.1	-6	6	4.3	11
Cc1cc(C(=O)NNC(=O)c2ccccc2[N+](=O)[O-])c(C)o1	.	.	14	0.2	-1	3	1.5	.
CC(C)CN(C(=O)c1ccc([N+](=O)[O-])s1)c1c(N)n(Cc2ccccc2)c(=O)[nH]c1=O	.	-2.0	-4.3	0.0	10	1	5.3	64*
O=C(c1ccco1)[C@@H]1[C@@H]2C(=O)N(c3ccc(F)cc3)C(=O)[C@@H]2C2c3ccccc3C=CN21 (stereo not given in full)	7	45*	-2.2	0.2	.	-10	.	-21
COc1cc(NC(=O)CN(c2cc(C)cc(C)c2)S(=O)(=O)c2c(C)[nH]c(=O)[nH]c2=O)cc(OC)c1	-4	11	2.4	-0.9	-3	-4	1.5	48
Cc1nn(-c2ccccc2)c(C)c1/C=N/NC(=O)CSc1nnc(SCc2ccc(Cl)cc2)s1	11	-11	-4.2	-3.0	-14	-1	.	-2
CC(=O)Oc1ccc(-c2cc3c(OC(C)=O)cc(OC(C)=O)cc3oc2=O)cc1	19	123*	0.2	-2.6	-4	4	-400	-6
CCOc1ccc(CN2CCCC(CO)(Cc3ccc(F)cc3)C2)cc1 (stereo not given)	3	-1.2	-1.8	0.2	8	4	5.5	31
CC(C)(OC(=O)NC(=O)C(F)(F)F)C(C)(C)OC(=O)NC(=O)C(F)(F)F	-13	-0.3	1.3	-0.6	7	-2	3.9	-10
CC(=O)Nc1cccc(S(=O)(=O)N2CCCCCC2)c1	-3	7.2	1.2	1.0	-4	-7	1.2	-13
CCN(CC)CCNC(=O)Cn1cnc2sc(C)c(S(=O)(=O)N3CCC(C)CC3)c2c1=O	-4	2.1	-6.4	0.7	12	-1	-0.4	9
CCn1nc(C)cc1C(=O)N(C)C1CCCN(Cc2ccccc2F)C1 (stereo not given)	2	-3.1	-15	0.0	-10	.	-0.7	2
O=C(CN(c1ccccc1Cl)S(=O)(=O)c1ccccc1)NCc1ccccc1	1	-1.6	.	.	-6	.	1.9	6
CN(CC#CC(O)(c1ccccc1)c1ccccc1)C(C)(C)C	-3	4.4	0.6	2.6	-1	.	1.9	.
CCCn1c(SCC(=O)OCC)nc(C(F)(F)F)cc1=O	-20	0.0	1.6	0.4	3	-8	0.6	-15
COc1ccccc1NC(=O)CN1CCCCC1	-6	3.2	-0.7	0.7	-1	.	1.8	4
CC(C)Cn1c(N)c(C(=O)COC(=O)c2c(O)c(Cl)cc(Cl)c2Cl)c(=O)n(C)c1=O	.	.	5.5	0.6	12	0	1.9	.
O=S(=O)(c1cccc(-c2nc3n(n2)Cc2ccccc2-3)c1)N1CCCCC1	0	-2.1	9.4	-0.4	-20	3	1.1	17
O=C(CSc1nnc(C2COc3ccccc3O2)o1)Nc1ccc(F)cc1Cl (stereo not given)	-12	0.0	0.7	0.2	2	.	3.5	-17
Cc1ccc(CN2C(=O)CCC2C(=O)NCCc2ccccc2)cc1 (stereo not given)	-6	-4.5	-2.2	-0.9	4	.	5.9	5
COc1cc(C(=O)Nc2nnc(CC(C)(C)C)s2)c([N+](=O)[O-])cc1OC	0	1.4	1.8	0.0	0	-10	7.2	-6
COc1ccc(C(=O)O/N=C(\N)Cc2ccc(Cl)cc2Cl)cc1OC	?	0.7	-4.0	0.1	11	5	2.4	6
Nc1ncnc2c1nc(N1CCCCC1)n2[C@@H]1O[C@H](CO)[C@@H](O)[C@H]1O	.	.	-5.9	0.2	1	-1	1.9	.
CCN(c1ccc(OC)cc1)S(=O)(=O)c1nnc(NC(=O)c2ccc(C)cc2)s1	-7	-0.4	3.3	-1.0	4	12	0.1	-5
Cc1cc2c(cc(C(=O)N3CCC(C(=O)NC4CCCC4)CC3)n2Cc2c(F)cccc2Cl)o1	24	1.5	9.5	0.1	-7	4	4.3	51
Cn1nc(C(F)(F)F)cc1-c1ccc(S(N)(=O)=O)s1	17	2.1	0.7	-0.7	6	-2	5.3	-10
CCOC(=O)C1CCN(C(=O)CN(C)S(=O)(=O)c2cc(C)ccc2OC)CC1	-8	-2.5	3.2	-0.7	8	8	4.5	7
O=C(COc1ncnc2ccccc12)Nc1ccc(S(=O)(=O)N2CCOCC2)cc1	2	3.0	4.4	-0.3	-4	-6	1.1	0
CC(C)(C)NC(=O)Cn1nnc(-c2ccccc2NC(=O)c2cnccn2)n1	-12	3.4	0.0	-1.2	3	-6	-2.0	-6
CCOC(=O)c1c(/N=C/c2cc(OC)cc([N+](=O)[O-])c2O)sc(C)c1C	14	0.7	14	-0.2	-5	-1	.	53
OC[C@@H](O)[C@H](O)C(/C=N/Nc1ccccc1)=N\Nc1ccccc1	-44	8.6	-1.2	-0.1	12	-5	.	-14
CCCCSc1ccc(NC(=O)c2cccnc2)cc1	4	1.1	1.9	-3.1	-11	100*	3.5	10
Cc1occc1C(=O)NC1CCCN(Cc2ccc(Cl)cc2)C1 (stereo not given)	-1	-1.9	1.2	-1.6	-2	2	4.1	35

Assay outcomes from PubChem.
